Source: PubChem BioAssay
RanGTP-Imp inh – inhibitors of RanGTP-importin-beta interaction, primary screen, biochemical, FRET, CFP-Ran, YFP-importin-beta, homogeneous; cell-free CFP-Ran/YFP-importin-beta FRET ratio; inhibition, % (no concentration beside the values); 300,000 compounds, 1.1% hits; AID 2216;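 active = most replicates above 15%; inconclusive = exactly half above 15%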;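 also: 0% = DMSO wells and 100% = Ran loaded with GDP instead of GTP; wells of about 40 µL received 100 nL stock; the first replicate is given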
Beta apoptosis – beta cell apoptosis inhibition. INS-1E cytokine-induced death, ATP luminescence, 48 h; percent of positive-control rescue, neutral wells zero. AID 435005. protection from apoptosis, % (test concentration not listed). 300,000 compounds, 0.8% hits;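 active = all replicates at 75% or more, or half of them and the mean; inconclusive = half reach 75% but not the mean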;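 also: 0% = cytokine-treated negative control wells and 100% = positive control rescue; higher means more ATP so stronger rescue from cytokine killing; wells of about 40 µL received 100 nL stock; the first replicate is given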
Beta2AR agonist – human beta-2 adrenergic receptor agonism by FAP; P07550; Am2.2-beta2AR cells, FAP receptor internalization, flow cytometry; reference of the scale not given here; response, % (concentration not given with the values); 340,000 compounds, 0.43% hits; AID 504454;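 active = response above a set limit, near 3 SD of response in nonfluorescent compounds, cut at about 42% in these data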;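 also: stock transfer was 100 nL into about 11 µL; a reference agonist was the positive control; negative values mostly stem from fluorescent compounds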
A1 inh – inhibitors of the anti-apoptotic protein A1, read as caspase activation; MEF A1-2A-BIM cells, Caspase-Glo 3/7 luminescence, 3 h; percent of clofoctol response, vehicle zero; caspase activation, % (test concentration not listed); 330,000 compounds, 0.066% hits; AID 2462;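 active = over half of replicate activation scores above 10%, or exactly half above 10 with the replicate mean above 10; inconclusive = replicate mean below 10 yet half the replicates above 10; inactive = over half of replicates below 10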;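 also: wells of about 30 µL received 50 nL stock; many hits fall short of the cut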
UCH37 inh – human UCH37 deubiquitinating enzyme inhibition; purified proteasome/UCH37, Ub-AMC cleavage fluorescence; 330,000 compounds, 0.33% hits; AID 588478; inhibition, % (no concentration beside the values); Q9Y5K5;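 active = mean of two replicates above 20%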;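 also: 0% = compound-free wells with enzyme and 100% = wells lacking proteasome; stock transfer was 100 nL into about 20 µL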
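Material: human UCH37 enzyme supplied as purified proteasome complex / Amount: 0.15 nM proteasome as dispensed / Buffer or medium: pH 7.4 Tris-HCl (50 mM) with ovalbumin, ATP-MgCl2, DTT / Times: preincubation 30 min, reaction 25 min, room temperature / Technique: AMC fluorescence from Ub-AMC cleavage, excitation 355 nm, emission 460 nm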
LANA-H2B inh – blocks KSHV LANA binding to histone H2A/H2B; 320,000 compounds, 0.6% hits; Q9QR71; inhibition, % (no concentration beside the values); cell-free LANA-H2A/H2B peptide, fluorescence polarization; in the data active = inhibition mostly above about 10%, no sharp cut-off; inactive = mostly below about 6.7%;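 also: stock transfer was 7.5 nL into about 10 µL; 0% = median of vehicle wells and 100% = median of positive control wells; one replicate is shown; the record names a cut of 25% in any replicate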
Target sequence (Q9QR71 whole entry, looked up): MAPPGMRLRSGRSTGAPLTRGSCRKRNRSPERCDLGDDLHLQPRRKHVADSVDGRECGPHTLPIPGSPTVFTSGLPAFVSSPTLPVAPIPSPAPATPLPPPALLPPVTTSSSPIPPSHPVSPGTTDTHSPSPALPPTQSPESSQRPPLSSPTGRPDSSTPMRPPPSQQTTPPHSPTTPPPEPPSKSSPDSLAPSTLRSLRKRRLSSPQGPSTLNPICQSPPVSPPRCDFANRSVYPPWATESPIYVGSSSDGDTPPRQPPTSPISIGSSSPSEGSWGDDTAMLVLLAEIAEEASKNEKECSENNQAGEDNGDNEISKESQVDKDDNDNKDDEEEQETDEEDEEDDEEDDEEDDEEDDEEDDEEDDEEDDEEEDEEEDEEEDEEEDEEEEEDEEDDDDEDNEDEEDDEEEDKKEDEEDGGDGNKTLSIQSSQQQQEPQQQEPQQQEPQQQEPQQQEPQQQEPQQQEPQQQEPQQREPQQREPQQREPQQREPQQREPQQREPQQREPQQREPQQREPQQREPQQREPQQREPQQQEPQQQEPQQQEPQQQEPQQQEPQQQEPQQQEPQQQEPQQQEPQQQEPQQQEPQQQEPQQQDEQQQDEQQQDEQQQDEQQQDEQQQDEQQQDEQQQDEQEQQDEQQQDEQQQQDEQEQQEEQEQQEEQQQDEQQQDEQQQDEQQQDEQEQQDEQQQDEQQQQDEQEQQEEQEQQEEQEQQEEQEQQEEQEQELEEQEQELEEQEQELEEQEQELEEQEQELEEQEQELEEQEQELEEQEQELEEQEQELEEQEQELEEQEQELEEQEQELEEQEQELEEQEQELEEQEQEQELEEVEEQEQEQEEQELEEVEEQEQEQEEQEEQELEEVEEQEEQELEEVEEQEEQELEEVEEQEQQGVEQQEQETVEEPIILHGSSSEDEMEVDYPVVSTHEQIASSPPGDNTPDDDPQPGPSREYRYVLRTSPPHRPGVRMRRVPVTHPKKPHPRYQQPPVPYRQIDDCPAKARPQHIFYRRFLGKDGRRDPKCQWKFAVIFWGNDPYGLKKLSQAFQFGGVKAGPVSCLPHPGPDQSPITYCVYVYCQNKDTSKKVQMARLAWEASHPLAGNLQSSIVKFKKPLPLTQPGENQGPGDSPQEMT
Calb FLC – C. albicans growth modulation with fluconazole; C. albicans CaCi-2 (fluconazole-resistant clinical isolate) + fluconazole, Alamar Blue growth, 48 h; growth inhibition, % (test concentration not listed); 300,000 compounds, 0.57% hits; AID 1979;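 active = most replicates above 75%; inconclusive = exactly half above 75%; inactive = most below 75%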;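 also: all wells also contain fluconazole at 8 µg/ml as a sub-toxic cotreatment; 0% = median of DMSO wells and 100% = median of geldanamycin control wells; wells of about 8 µL received 7.5 nL stock; the first replicate is given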
T cruzi inh – blocks replication of Trypanosoma cruzi; T. cruzi beta-gal in NIH3T3, luminescence, 90 h; inhibition, % (concentration not given with the values); 300,000 compounds, 1.4% hits; AID 1885;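 active = mean inhibition across valid replicates above about 55%, limit read from the data; inconclusive = mean below that limit but half or more replicates reach it; inactive = mean below it, under half of replicates reach it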;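 also: signal also drops with host cell toxicity which is not excluded here; 0% = plate median of DMSO wells and 100% = zero luminescence signal; higher percent means less beta-gal luminescence so fewer parasites; stock transfer was 50 nL into about 50 µL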
Starred values were filed as active, the others as inactive; ? = inconclusive; . = not tested or not shown.

SMILES	RanGTP-Imp inh	Beta apoptosis	Beta2AR agonist	A1 inh	UCH37 inh	LANA-H2B inh	Calb FLC	T cruzi inh
CC1(C)Cc2c(sc(NC(=O)C(=O)NCC3CCCO3)c2C(=O)O)CO1 (stereo not given)	2.9	-6	-5	0.2	5.8	0.0	.	-3
CC(C)(C)N1C(=O)c2ccc(C(=O)NCc3ccco3)cc2C1=O	0.9	-9	8	1.1	-0.4	-3.0	-3	0
CCCN1Cc2cccc(C(=O)N3CCN(c4ccc(OC)cc4)CC3)c2C1=O	-1.9	-3	3	-0.5	2.4	1.6	-8	7
COc1ccc2ccc(C(C)(C(C)=O)C(=O)OC(C)C)cc2c1 (stereo not given)	.	1	1	-0.4	2.1	-4.3	.	.
Cc1c(Br)c([N+](=O)[O-])nn1CCCC(=O)N1CCN(c2ccccc2)CC1	3.2	-1	-5	0.2	0.9	2.4	15	15
CC(C(=O)C12CC3CC(CC(C3)C1)C2)N1CCOCC1 (stereo not given)	5.8	.	1	0.6	1.1	2.3	1	-2
Cc1cc(C)c2[nH]c(O)c(N=NC3=NC(=O)CS3)c2c1	-3.4	-3	11	-0.6	20	-0.1	-2	-5
CC(C)N(Cc1ccccc1)C(=O)CN1C(=O)COc2ccc(S(=O)(=O)N3CCCCCC3)cc21	1.3	6	0	-0.6	1.0	-6.1	3	-28
COc1ccc(S(=O)(=O)N2CCN(C(=S)NC3CCCCC3)CC2)cc1	?	0	5	1.0	2.4	0.2	-5	6
COCCCNc1nc2c(-c3ccc(Cl)cc3)nnn2c2ccccc12	?	.	-10	0.0	-448	3.3	-1	-10
CCOc1ccccc1NC(=O)c1ccccc1-c1nc(-c2ccccc2OC)no1	.	6	16	0.3	0.6	0.5	-36	.
CCOC(=O)NC(=O)CSc1cc(C)c2cc(C)cc(C)c2n1	1.8	-2	2	-1.2	1.0	-9.1	?	-3
COc1ccccc1CC(NC(C)=O)C(=O)NC1CCN(S(=O)(=O)c2ccccc2)CC1 (stereo not given)	1.7	.	6	.	0.4	.	-2	6
CC1Cc2ccccc2N1C(=O)COC(=O)Cn1cnc2ccccc2c1=O (stereo not given)	-0.6	0	-7	0.0	0.4	1.5	11	-1
CN(C)c1nc(N)nc(CSc2nnnn2-c2cccc3ccccc23)n1	?	11	-3	-1.0	0.1	3.5	26	11
CC(=O)Nc1ccc(NC2CCCCC2NS(=O)(=O)c2ccccc2)cc1 (stereo not given)	4.2	2	8	-1.1	1.7	0.8	26	-14
O=C1OCC(CO)(CO)N=C1NNc1ccccc1[N+](=O)[O-]	6.1	0	2	0.2	8.4	3.3	0	-8
CCC1=C(OC(=O)N(CC)CC)N2C(=O)OC(=NCc3ccccc3)[C@]2(C)[C@H]2C1=CC[C@H]1C(=O)N(CC)C(=O)[C@H]12	?	7	-2	-0.6	1.8	-0.2	16	-23
Fc1ccc(CN2CC[C@H]3C=CCc4cccc(c43)C2)cc1	.	-1	10	-0.1	5.5	-0.5	.	.
CC(C)CNC(=O)/C(C#N)=C1\N=C(NC(=O)c2ccco2)c2ccccc21	4.8	3	15	-0.1	2.9	-0.3	-2	-6
O=C(CSc1nc2ccccc2n1CC(=O)N1CCCCC1)N1CCCCC1	0.6	0	3	-0.2	1.4	-0.2	4	8
COc1cc2c(cc1OC)C(C)N(C(=O)c1cccc([N+](=O)[O-])c1)CC2 (stereo not given)	-1.1	-16	8	0.2	1.8	-1.8	-29	1
O=c1c(Cc2ccc(Cl)cc2Cl)c(O)ccn1CCCN1CCOCC1	2.4	-3	0	2.3	2.3	-2.2	-2	-7
Cc1ccsc1/C=N/NC(=O)CNC(=O)c1c(F)cccc1Cl	-0.6	-4	-2	1.4	.	0.2	0	-23
CCn1c(CNC(=O)COc2ccc(C(C)C)cc2)nnc1SCC(=O)Nc1ccccc1F	-5.9	-7	0	0.0	3.1	0.6	12	10
COc1ccc(NC(=S)N2CCNC(=O)C2CC(=O)Nc2ccc(C)cc2)cc1 (stereo not given)	1.3	-1	-3	-0.1	2.9	4.3	8	8
Cc1ccc(-n2ncc(C(=O)Nc3cc(Cl)ccc3C)c2C2CCNCC2)cc1C	.	12	8	1.2	2.0	-5.1	-25	19
COc1cccc(-c2cc(C(=O)N3CCN(S(=O)(=O)c4ccc(Br)cc4)CC3)[nH]n2)c1	0.1	5	12	1.0	-0.5	2.5	-2	-1
O=C(CSc1ncnc2c1cnn2-c1ccccc1)NCC1CCCO1 (stereo not given)	1.3	-5	6	-3.2	1.5	2.8	2	-11
CCc1ccc(NC(=S)N2CCN(C)CC2)cc1	2.5	-7	9	0.1	2.4	1.1	-1	0
CCCSc1nnc2n(C)c(=O)c3c4c(sc3n12)CCC4	3.2	7	1	-0.4	-1.5	0.5	3	5
COc1cc(/C(C#N)=C/c2cccc3ccccc23)c([N+](=O)[O-])cc1OC	0.3	-1	7	0.2	2.8	-1.9	0	-1
CCOC(=O)c1c(NC(=O)c2cc(CC(C)C)on2)sc(C(C)=O)c1C	2.3	-4	7	-1.4	-1.7	-1.5	-4	8
O=c1ccc(Cl)cn1Cc1ccccc1F	-0.1	-3	-3	-0.1	-0.5	-10	-15	-20
CN(Cc1ccccn1)C(=O)C1CCC(=O)N(CCc2ccc(Cl)cc2)C1 (stereo not given)	1.9	-4	-4	-1.1	-0.6	0.1	-7	-15
CN(C)C1(CNC(=O)C2CCC(=O)N(CCc3ccc(Cl)cc3)C2)CCCCC1 (stereo not given)	1.0	-1	7	-0.5	-0.4	-4.8	5	9
Cc1ccc(C(=O)NC2CCN(S(=O)(=O)c3ccccc3)CC2)cc1	-4.1	4	4	1.6	4.6	-0.8	5	2
Cn1c(=O)c2c(nc(CN3CCN(c4cccc(Cl)c4)CC3)n2CCc2ccccc2)n(C)c1=O	2.4	4	-5	0.1	3.0	0.9	-7	16
Nc1nnc(SCc2ccc(F)cc2)s1	0.5	-8	1	0.9	1.7	-2.2	-10	1
COc1cccc(NC(=O)CSc2nnc(C)s2)c1	1.0	-6	-2	0.5	1.3	1.4	0	-11
C/C=C/Cn1c(SCc2ccc(C)cc2)nc2c1c(=O)[nH]c(=O)n2C	1.2	.	7	-1.1	4.5	-0.3	-5	9
CCC(=O)c1ccc(OCC(=O)N2CCCC2)c(OC)c1	2.1	-9	-9	0.8	-1.2	-2.5	-11	-3
CC1=C(n2ccnc2)CCC1=O	3.1	-2	0	0.0	2.0	0.9	-5	5
COc1ccc(Cc2nnc(NC(=O)c3cccc([N+](=O)[O-])c3)s2)cc1	2.6	.	4	-0.9	2.1	2.2	2	-12
c1ccc(CN2CCN(C(c3ccccc3)c3ccccc3)CC2)cc1	-5.8	0	2	-0.6	1.3	0.8	-3	19
CCOC(=O)c1c(OCC)[nH]c2c1cc(O)c1ccccc12	-9.0	-4	3	0.8	-11	1.2	34	-17
CCOC(=O)c1ccccc1NC(=O)/C(C)=C/C(=O)O	1.2	-1	-1	0.5	-29	2.1	0	-7
C#CCOCCOCCOCCNc1nc(N2CCOCC2)nc(N2CCN(C(=O)[C@H](CCC(=O)O)n3cc([C@@H](N)CCCCN)nn3)CC2)n1	.	2	0	-0.2	0.5	-4.5	.	.
Cc1ccc(-c2nc(S(=O)(=O)c3ccccc3)c(SCC(=O)NCC3CCCO3)o2)cc1 (stereo not given)	-5.6	3	-5	0.1	2.1	7.5	1	14
COc1ccccc1NC(=O)NNC(=O)c1cc2ccccc2cc1O	-2.4	-3	11	-0.4	-10	-12	86*	-2
Cc1ccc(C(=O)N/C(=C\c2cccs2)C(=O)NCc2ccncc2)cc1	1.5	-2	2	0.6	2.8	-0.5	-13	-3
COc1ccc(NC(=O)c2coc(C)c2)cc1	?	-4	2	0.0	1.2	2.4	-14	-16
OCCN1CCN(c2ncnc3scc(-c4ccc(F)cc4)c23)CC1	2.0	-1	6	2.3	1.0	0.0	1	0
O=C(c1ccccc1)N1CCN(C(=S)NCCc2ccccc2)CC1	-9.3	-1	6	-0.6	5.8	5.6	-25	0
Cc1cc(C)c(C)c(S(=O)(=O)Nc2ccc(O)cc2)c1C	0.9	.	3	0.0	6.8	-0.9	12	3
O=C(COC(=O)c1cc(=O)[nH]c2ccccc12)c1cccs1	1.7	-4	-17	0.3	-18	3.1	-11	-9
O=C(COC(=O)c1c(Cl)cccc1Cl)NCC1CCCO1 (stereo not given)	2.3	-2	0	-0.7	-0.6	0.5	-12	-22
S=C(NCCc1ccccn1)Nc1ccc(Cl)c(Cl)c1	4.4	-6	53*	0.8	2.2	0.9	-4	3
O=C(O)c1ccc(N2CC3CC(C2)c2cccc(=O)n2C3)c(NC(=S)Nc2ccc(Cl)cc2Cl)c1 (stereo not given)	-4.2	-3	-2	0.2	4.1	-1.5	1	15
NC(=O)[C@@H]1CCCN1C(=O)c1ccc2oc(CCc3ccccc3)nc2c1	3.0	-2	1	0.4	0.8	6.3	-14	-30
Continuation:
SMILES	RanGTP-Imp inh	Beta apoptosis	Beta2AR agonist	A1 inh	UCH37 inh	LANA-H2B inh	Calb FLC	T cruzi inh
COC(=O)c1cc(OC)c(OC)cc1NC(=O)c1ccccc1	0.9	-7	-1	1.0	-163	9.8	16	11
O=C(OCC#CCSc1nnc(-c2ccccc2)o1)c1cc2ccccc2o1	-3.9	-3	0	-1.6	4.8	-12	-3	-14
CN1CCN(CCC(=O)Nc2ccc(C3CCCC3)cc2)CC1	8.6	-7	-4	-0.2	3.2	-1.8	-20	17
Cc1ccccc1NC(=O)CC1S/C(=N/c2nccs2)N(C)C1=O (stereo not given)	?	-11	14	-0.5	.	0.7	5	-11
Cc1ccc(C)c(NC(=S)NCC(c2cccnc2)N2CCOCC2)c1 (stereo not given)	?	-1	8	-0.2	0.0	2.6	-4	3
Cc1sc(C(=O)Nc2ccc3ccccc3c2)cc1CC(=O)O	5.1	-3	-2	-3.0	4.1	3.1	-14	7
O=C(C[n+]1ccc2ccccc2c1)Nc1cc(C(F)(F)F)ccc1Cl	-0.4	0	-10	-0.7	.	1.0	?	-16
CCSc1nsc(NC(=O)Nc2ccccc2OC)n1	-2.4	5	-2	-1.8	0.4	-2.8	-1	-4
CC(OC(=O)Cc1n[nH]c(=O)c2ccccc12)C(=O)Nc1ccccc1[N+](=O)[O-] (stereo not given)	3.0	-6	8	0.6	-0.4	-1.5	3	1
Cc1nc2cc(NC(=O)Nc3cccc4ccccc34)ccc2n1C	-4.7	-2	-1	-5.9	0.4	-0.6	13	8
Cc1ccc(-n2nnnc2CS(=O)(=O)c2ccccc2)c(C)c1	2.7	-11	7	1.7	1.8	-15	-2	9
COc1cc(Cl)c(S(=O)(=O)N2CCN(Cc3ccc4c(c3)OCO4)CC2)cc1Cl	-0.6	1	-3	-1.6	2.9	-2.1	-3	7
Cc1cccc(C(=O)NCC(=O)N2CCC2)c1	.	-6	-5	1.1	0.4	4.7	.	.
